Bioassay records from PubChem BioAssay.
MT1-MMP reporter = inhibitors of MT1-MMP promoter transcription, cell-based, luciferase reporter, luminescence (AID 618); MT1-MMP promoter luciferase reporter cells, luminescence; calls from a first round at 10 µM; hits with a dose series show EC50 in µM; hit rate 0.62% among 87,000;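 active = over half of the reporter light lost at 10 µM or EC50 under 50 µM; inactive = the rest and hits that failed the dose series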;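 also: actives suppress MT1-MMP promoter-driven transcription so potencies describe inhibitors; HT1080 fibrosarcoma cells; overnight exposure; toxic or luciferase-blocking compounds were not removed from the actives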
Hsc70 ATP site = Hsc70 inhibitors, probe displacement, primary screen, biochemical, fluorescence polarization (AID 568). Hsc70 fluorescence polarization, probe displacement; higher % means a stronger effect; strong numbers were not always called active. displacement, % at 20 µM, or IC50 in µM where a hit was titrated. 83,000 tested, under 10 active;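 active = displacement above 50% without optical interference and an IC50 on retest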;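 also: ATPase domain with a fluorescein-tagged ATP probe; 0% = vehicle and 100% = excess ADP; read after one hour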
WNV protease inh = inhibitors of WNV NS2B-NS3 protease, primary screen, biochemical, fluorogenic substrate | Genome polyprotein (West Nile virus), P06935 | fluorogenic substrate Ex360/Em465; hits give low values | z-score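 (tested at a level between 10 and 100 µM)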 | hit rate 0.18% among 65,000;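 active = z-score at -3 or under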;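 also: score is relative to mean and spread of the compound wells of a plate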
Target sequence (P06935 1371-1501 limits assumed): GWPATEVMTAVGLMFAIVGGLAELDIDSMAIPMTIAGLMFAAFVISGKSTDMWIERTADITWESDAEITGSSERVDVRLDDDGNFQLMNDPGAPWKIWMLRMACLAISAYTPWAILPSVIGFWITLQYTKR
Target sequence (P06935 1502-1679 limits assumed): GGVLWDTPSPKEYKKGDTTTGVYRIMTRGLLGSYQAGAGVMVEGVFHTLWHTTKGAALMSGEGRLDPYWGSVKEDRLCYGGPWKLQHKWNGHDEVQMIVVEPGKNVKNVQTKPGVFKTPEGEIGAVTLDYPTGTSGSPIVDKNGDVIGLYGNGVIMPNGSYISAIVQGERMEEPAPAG
Numbers without * were called inactive; i = inactive; . = not tested or not shown.

Preview, 5 compounds:
Structure | MT1-MMP reporter | Hsc70 ATP site | WNV protease inh
CC(=O)Nc1sc2c(c1C#N)CCCCC2 | i | -0.7% | -0.0055
Clc1c(CSc2nc3ccccc3o2)nc2sccn12 | i | 4.7% | 0.34
Cc1cc(C)nc(SCc2csc(N)n2)n1 | i | 3.6% | -0.58
COC(=O)CSCC(=O)Nc1cc2c(cc1C(C)=O)OCO2 | i | -1.0% | 0.07
CC(C)N(Cc1nc(-c2ccccc2)no1)C(=O)c1ccc(Cl)cc1 | i | 3.2% | -0.89

The list itself (from the top)
Structure | MT1-MMP reporter | Hsc70 ATP site | WNV protease inh
CC(=O)Nc1sc2c(c1C#N)CCCCC2 | i | -0.7% | -0.0055
Clc1c(CSc2nc3ccccc3o2)nc2sccn12 | i | 4.7% | 0.34
Cc1cc(C)nc(SCc2csc(N)n2)n1 | i | 3.6% | -0.58
COC(=O)CSCC(=O)Nc1cc2c(cc1C(C)=O)OCO2 | i | -1.0% | 0.07
CC(C)N(Cc1nc(-c2ccccc2)no1)C(=O)c1ccc(Cl)cc1 | i | 3.2% | -0.89
O=C(O)c1ccccc1C(=O)N1CCN(c2ccccc2)CC1 | i | 4.8% | -0.39
COc1cccc2c1nc(C)c1cc(C)oc12 | i | 8.7% | -0.05
COc1ccc(C(=O)Nc2oc(-c3ccccc3)c(-c3ccccc3)c2C#N)cc1 | i | 2.7% | .
CCOC(=O)c1ccc(NC(=O)C2=C(C)Nc3nc(CCCO)nn3C2c2ccc(OC)cc2)cc1 (stereo unspecified) | i | -10% | 0.26
CC(=O)Oc1c(C)cc(O)c2ccccc12 | i | 6.4% | -0.37

Continuation:
Structure | MT1-MMP reporter | Hsc70 ATP site | WNV protease inh
COc1cccc2[nH]c3c(N4CC(C)CC(C)C4)ncnc3c12 (stereo unspecified) | i | 0.5% | .
COC(=O)C(NC(=O)c1ccco1)(Nc1ccc(Br)cn1)C(F)(F)F (stereo unspecified) | i | -1.6% | -0.32
Cc1ccc(Cn2nnc3c(=O)[nH]c(C4CCN(C(=O)Cc5cccs5)CC4)nc32)cc1 | i | -2.1% | -0.63
Cc1ccc(S(=O)(=O)Cn2nnnc2C(C)N2CCN(C(=O)c3ccco3)CC2)cc1 (stereo unspecified) | i | -1.0% | 0.08
O=C(NCc1ccccc1)C(c1ccco1)N(C(=O)c1cnccn1)c1ccc(F)cc1 (stereo unspecified) | i | 5.1% | .
COCc1nnc(NC(=O)CC(C)C)s1 | i | -3.7% | .
CCC(=O)Nc1cccc(-c2nc3ccccc3o2)c1 | i | -1.9% | 0.79
COc1cc(C2/C(=C(/O)c3ccc(F)cc3)C(=O)C(=O)N2CCCC(=O)O)ccc1O (stereo unspecified) | i | 2.1% | -0.19
O=C(CCCCCN1C(=O)c2ccccc2C1=O)Nc1ccc(F)cc1 | i | -0.2% | .
Cc1cc(C(F)F)n2ncc(C(=O)N3CCCCC3)c2n1 | i | -1.2% | .

The closing four entries of the section before open the next one:
Structure | MT1-MMP reporter | Hsc70 ATP site | WNV protease inh
CCC(=O)Nc1cccc(-c2nc3ccccc3o2)c1 | i | -1.9% | 0.79
COc1cc(C2/C(=C(/O)c3ccc(F)cc3)C(=O)C(=O)N2CCCC(=O)O)ccc1O (stereo unspecified) | i | 2.1% | -0.19
O=C(CCCCCN1C(=O)c2ccccc2C1=O)Nc1ccc(F)cc1 | i | -0.2% | .
Cc1cc(C(F)F)n2ncc(C(=O)N3CCCCC3)c2n1 | i | -1.2% | .
COc1cc(OC)cc(C(=O)Nc2ccc(S(=O)(=O)N(C)C)cc2)c1 | i | -9.5% | -2.5
Cc1csc(NC(=O)c2nc3nccc(C)n3n2)n1 | i | -4.7% | -1.7
CC1CCCN(c2nc3ccsc3c(=O)s2)C1 (stereo unspecified) | i | -2.6% | 0.23
CC1CCCN(C(=O)COC(=O)c2n[nH]c3ccccc23)C1 (stereo unspecified) | i | 2.8% | 0.72
C=CCN1C(=O)C(Cc2ccc(OCC)cc2)S/C1=N\N=C\c1cccs1 (stereo unspecified) | i | 1.7% | .
CCOC(=O)c1ccccc1NC(=O)c1ccccc1SC | i | 5.6% | 1.6
COc1ccccc1NC(=O)N(c1c(N)n(Cc2ccccc2)c(=O)[nH]c1=O)C1CCCC1 | i | -4.9% | -0.14
COc1ncnc(OC)c1NC(=O)c1ccc(F)cc1 | i | -1.1% | -0.44
CC(C)(Oc1ccc(Cl)cc1)C(=O)OCC(=O)Nc1ncc(Cl)cc1Cl | i | -2.1% | .
COc1ccc(CC(=O)Nc2c3c(nn2C(C)(C)C)CS(=O)C3)cc1 (stereo unspecified) | i | 5.1% | 2.4

(listing goes on)
Structure | MT1-MMP reporter | Hsc70 ATP site | WNV protease inh
O=C(NCc1ccc2c(c1)OCO2)c1ccc(NS(=O)(=O)c2ccc3c(c2)OCCO3)cc1 | i | -0.6% | 0.22
O=C(CCSCc1ccccc1F)N1CCN(c2ccccn2)CC1 | i | 10% | 0.6
CCC(C)NC(=O)C1CCN(C(=O)c2ccccc2)CC1 (stereo unspecified) | i | -1.8% | -0.32
Cc1ccc(S(=O)(=O)N2CCC(C(=O)NCc3cccnc3)CC2)cc1 | i | -0.7% | .
CC(C)(C)n1nnnc1C(c1cccnc1)N(Cc1ccccc1)Cc1ccco1 (stereo unspecified) | i | -5.2% | .
CCn1c(=O)c(C(=O)Nn2c(C)nc3ccccc3c2=O)c(O)c2ccccc21 | i | 3.0% | -0.99
COC(=O)c1ccc(N=c2sc(C(=O)OC)cc(=O)n2C)cc1 | i | 1.9% | 0.0066
O=S(=O)(NCCOc1cccc2cccnc12)c1ccc(F)cc1 | i | 4.6% | -1.6
COc1ccc(-c2cn3c(C)c(C(=O)Nc4ccncc4)sc3n2)cc1 | i | -4.2% | 0.59
COc1cc(C2CC(=O)c3cnc(N4CCN(Cc5ccccc5)CC4)nc3C2)cc(OC)c1OC (stereo unspecified) | i | -3.7% | -0.49

Additional results.
Structure | MT1-MMP reporter | Hsc70 ATP site | WNV protease inh
Cc1ccc2[nH]c(=O)c(CN(CC3CCCO3)S(=O)(=O)c3c(C)ccc4nsnc34)cc2c1 (stereo unspecified) | i | -2.6% | -1
CC(=O)c1ccc(OCC(O)COc2ccc(C(C)=O)cc2)cc1 | i | 0.2% | -0.17
CCC(C)n1c(SCC(=O)Nc2cc(C)on2)nc2ccccc2c1=O (stereo unspecified) | i | 2.6% | .
Clc1ccc(-c2csc(N3CCN(c4ccccc4)CC3)n2)cc1 | i | -0.2% | .
COc1ccc(OCCC(=O)NC2=NCCS2)cc1 | i | 4.6% | -1
Nc1n[nH]c2c1C1(CCCC1)Cc1ccccc1-2 | i | -4.7% | .
CCCc1noc2c1/C(=N\O)CCC2 | i | -4.2% | .
COc1ccc(-n2c(Cn3c(=O)sc4ccccc43)nnc2SCC(=O)N2CCOCC2)cc1 | i | 2.9% | -0.53
CN1CCN(c2nc(N3CCN(CCO)CC3)nc3ccccc23)CC1 | i | -5.8% | 0.5
Cc1cc(-n2nc(C)cc2C)n2nc(C)c(-c3ccccc3)c2n1 | i | 4.1% | .

(continued)
Structure | MT1-MMP reporter | Hsc70 ATP site | WNV protease inh
CCN(CC)S(=O)(=O)c1cccc(C(=O)NCCCN2CCOCC2)c1 | i | 1.7% | -1.3
CCOC(=O)c1snc2c(=O)[nH]cnc12 | i | -2.1% | -1.6
CC(NC(=O)c1ccc(CS(=O)(=O)Cc2ccccc2F)o1)c1ccc2c(c1)OCCO2 (stereo unspecified) | i | 3.0% | -0.18
CCC(NC(=O)Nc1cc(OC)c(OC)c(OC)c1)(C(F)(F)F)C(F)(F)F | i | -1.3% | -0.45
COC(=O)c1ccc(CSc2ccc3nnc(-c4cccc(F)c4)n3n2)o1 | i | 8.0% | -0.2
CCCCCCCCC(=O)NC(NC(=S)N1CCOCC1)C(Cl)(Cl)Cl (stereo unspecified) | i | 3.9% | .
CN1CCN(S(=O)(=O)c2ccc(N(C)Cc3cccs3)nc2)CC1 | i | -1.3% | -0.45
CC(c1ccc(Br)cc1)N1CC23C=CC(O2)C(C(=O)O)C3C1=O (stereo unspecified) | i | 0.7% | -0.64
Cc1cc(NC(=O)COC(=O)CSCc2ccc(Cl)c(Cl)c2)no1 | i | 0.9% | 0.28
C=CCNC(=O)c1ccccc1NS(=O)(=O)c1ccc(SC)cc1 | i | -30% | -0.52

Later entries.
Structure | MT1-MMP reporter | Hsc70 ATP site | WNV protease inh
Nc1ccc(-n2nnnc2-c2ccco2)cc1 | i | -0.6% | -0.31
CCOC(=O)Cc1csc(NC(=O)COc2ccccc2OCC)n1 | i | -1.6% | .
Cc1ccc2cc(C(c3nnnn3C3CCCC3)N3CCOCC3)c(=O)[nH]c2c1C (stereo unspecified) | i | -9.5% | -0.12
COc1ccccc1N1CCN(CCCC(=O)c2ccc(F)cc2)CC1 | i | -4.4% | -1.1
Cc1[nH]c2ccccc2c1CC(=O)O | i | -1.4% | -0.34
Cc1cc(C)c(NC(=O)CN(C2CCCCC2)C2CCCCC2)c(C)c1 | i | 5.1% | .
CCn1c(C)nc2cc(S(=O)(=O)N3CCCCC3)ccc21 | i | 7.0% | -0.56
CCOc1ccc(NCC(=O)Nc2ccc(Cl)cc2C)cc1 | i | -0.7% | .
Cc1nc(N2CCOCC2)c(C#N)c2c1COC(C)(C)C2 | i | -3.1% | 0.29
Brc1cccc(-c2nnc(-c3ccccc3)o2)c1 | i | 0.4% | -0.1

The list goes on.
Structure | MT1-MMP reporter | Hsc70 ATP site | WNV protease inh
COCCCNC(=O)c1ccc(CS(=O)(=O)Cc2cccc(C)c2)o1 | i | 4.6% | 0.12
N#CC1=C(N)NC(SCc2ccc(Cl)cc2)=C(C#N)C12CCCCC2 | i | -1.6% | -1
CCOc1ccccc1NC(=O)Cn1c(=O)c2ccccc2n(CC)c1=O | i | 2.2% | .
CC(=O)NC1CC2CCCC(C1)N2CC(=O)N1CCCc2ccccc21 (stereo unspecified) | i | -0.9% | -1.1
Cc1ccc(S(=O)(=O)N2CCCC2)cc1S(=O)(=O)N1CCCC1 | i | -2.7% | 0.21
Cc1ccc(Cn2c(CN3CCN(C(=O)c4ccco4)CC3)nc3c2c(=O)n(C)c(=O)n3C)cc1 | i | -1.0% | -0.81
COc1ccc(-n2c(O)c(Cc3ccccc3)c(=O)n3nc(-c4ccccc4)c(=O)cc23)cc1 | i | 6.1% | .
CCOC(=O)c1cccc(NC(=O)CSc2nnnn2CC)c1 | i | -0.1% | -1.1
COc1ccc(-c2csc(=Nc3c(C)n(C)n(-c4ccccc4)c3=O)n2C(C)(C)C)cc1 | i | 4.4% | .
Cc1[nH]c2c(C)cccc2c(=O)c1Br | i | 4.9% | -0.89

The listing continues.
Structure | MT1-MMP reporter | Hsc70 ATP site | WNV protease inh
Cc1ccc(C(=O)CSc2nnc(-c3cccnc3)n2N)cc1 | i | 7.0% | -0.3
COC(=O)c1ccccc1S(=O)(=O)N(Cc1cc2cc3c(cc2[nH]c1=O)OCO3)C1CCCCC1 | i | 2.7% | -0.18
Cn1c(CNc2ccccc2)nc2ccccc21 | i | -2.6% | -0.31
Cc1noc(C(=O)Nc2c(C)nn(Cc3ccccc3)c2C)c1Cl | i | 0.1% | 0.75
Cc1cc(=O)n(C)c(=O)n1CC(=O)N1CCCCCC1 | i | 2.2% | 0.19
CCOC(=O)c1c(C)c(C(=O)O)n(C)c1C | i | 2.3% | -0.22
COc1ccc(CNC(=O)C2CC(c3ccc(OC)cc3)=NO2)cc1 (stereo unspecified) | i | -4.4% | 0.01
COc1ccc(CCNC(=O)CCn2c(SCC#N)nc3ccccc3c2=O)cc1OC | i | -2.0% | -1.4
CC(Cc1cccs1)NC(=O)Nc1ccccc1 (stereo unspecified) | i | 2.9% | -1.8
Cc1cccc(-c2nc3c(c(SCC(N)=O)n2)CCCC3)c1 | i | -3.5% | .

Following part
Structure | MT1-MMP reporter | Hsc70 ATP site | WNV protease inh
Cc1ccc(C(C(=O)NC(C)(C)C)N(Cc2ccco2)C(=O)Cn2nnc(-c3cccs3)n2)cc1 (stereo unspecified) | i | 4.4% | .
CCCCCn1c(-c2ccco2)nc2nc3ccccc3nc21 | i | -8.6% | 4.8
COc1ccc(CNC(=O)C2CCCN2S(=O)(=O)c2ccc(Cl)cc2)cc1 (stereo unspecified) | i | -0.3% | .
Nc1nc(SCC(=O)NCCCO)nc2sc3c(c12)CCC3 | i | 5.6% | 0.22
O=C(Cn1nc(Cc2cccnc2)c2ccccc2c1=O)N1CCN(c2ccccn2)CC1 | i | 1.3% | -0.34
Clc1ccc(CSc2nnc(-c3c[nH]c4ccccc34)o2)cc1 | i | 8.0% | .
CC(=O)Nc1cccc(N(C)S(C)(=O)=O)c1 | i | -2.9% | 2.8
O=S(=O)(NCc1cccnc1)c1cccc2cccnc12 | i | -2.2% | 0.2
Cc1ccc(-c2nc3cc(NC(=O)C(C)C)ccc3o2)cc1 | 5.6µM* | -4.6% | 1.1
Cc1cccc2nc(CSc3nnc4ccccn34)cn12 | i | 6.3% | .

(further entries)
Structure | MT1-MMP reporter | Hsc70 ATP site | WNV protease inh
CC(NC(=O)C1CCC(=O)N1Cc1ccc(F)cc1)c1ccc2c(c1)OCCO2 (stereo unspecified) | i | -0.4% | 0.4
O=C(NCc1ccccn1)Nc1cccc(NC(=O)NCc2ccccn2)c1 | i | 3.9% | -1.2
O=C(O)CCc1nc(-c2ccccc2Cl)no1 | i | -1.7% | -0.73
COc1nc(OC)nc(N2CCC(C(=O)NCc3ccco3)CC2)n1 | i | 1.2% | -1.8
